D2 ag – agonists of human D2 dopamine receptor (beta-arrestin); P14416; DiscoveRx PathHunter D2 beta-arrestin, luminescence, 90 min; 100% = 57 uM dopamine signal; activation, % (concentration not given with the values); actives 0.084% (n = 360,000); AID 624465; in the data active = activation above about 40%; inconclusive = about 15% to 40%; inactive = below about 15%; also: compound concentration not given in the record; the text of the record calls up to 30% inactive
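DiscoveRx PathHunter D2 beta-arrestin cells (2,100/well) attached overnight, then compound-stimulated 90 min at 37 C in HBSS/10 mM HEPES/0.1% Tween-20 buffer; beta-galactosidase complementation read by luminescence after 1 h at ambient temperature. Dopamine 57 uM final (EC100) as control.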
TRPML1 blocker – blocks the human TRPML1 channel; Q9GZU1; TRPML1-inducible cells, Ca2+ dye fluorescence, FDSS; stronger effect = lower value; inhibition of EC80 agonist-evoked calcium signal; activity change, negative = inhibition, % (concentration not given with the values); actives 0.02% (n = 390,000); AID 624415; in the data active means activity change below about -50%; inconclusive means about -30% to -50%; inactive means above about -30%;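 also: stimulus is agonist 54-4 at its EC80 concentration; % is scaled to controls: 0 for no effect and ±100 for the full control effect; compound concentration not given in the record; the text of the record puts the active cut at -80%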
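Tet-induced TRPML1-DL cells loaded with Ca8 no-wash calcium dye were read kinetically on FDSS. Compound addition was followed by EC80 agonist 54-4 (4 uM final); inhibition was read over 110 s.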
TRPML1 agonist – human mucolipin-1 channel agonism | TRPML1-expressing cells, Ca2+ dye fluorescence, FDSS; host cell line not named in the record; reference of the full effect not given here | activation, % (test concentration not listed) | actives 0.12% (n = 410,000); in the data active = activation above about 50%; inconclusive = about 30% to 50%; inactive = below about 30%; also: 0% is about no effect; the text of the record puts the active cut at 80%
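TRPML1-DL cells, Tet-induced overnight (~16 h, 37 degrees C), loaded 45-90 min at room temperature with Ca8 no-wash calcium dye plus quencher. FDSS fluorescence: 10 s baseline, compound pin-transfer, 110 s agonist read, then EC80 54-4 (4uM final) and 110 s antagonist read.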
CtBP-E1A blk – CtBP/E1A binding inhibition | activity change, % (test concentration not listed) | AID 651724 | AlphaScreen GST-E1A/His-CtBP binding, 1536-well; stronger effect = lower value; control for the full effect not named in the record | actives 0.49% (n = 340,000); in the data active means activity change below about -65%; inconclusive means about -30% to -65%; inactive means above about -30%; also: % is scaled to controls: 0 for no effect and ±100 for the full control effect; compound concentration not given in the record
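Homogeneous bead-based format: GST-tagged E1A captured on glutathione donor beads, His-tagged CtBP on nickel acceptor beads; compounds precede bead addition by 2 h at 37 °C.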
PINK1 expr mod – PINK1 expression modulation; actives 0.2% (n = 410,000); PINK1 immunofluorescence, high-content cytometry, 24 h; Potency, µM (highest dose often 76.6 µM), for the others: at the top dose activation (PINK1 increase), usual class: activators; active = well fitted activation curve with a large enough effect; inconclusive = small, poorly fitted or top-dose-only effect; inactive = flat fitted curve, though single readings scatter; cell line not stated here;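 also: potency is read from the fitted curve at half-maximal effect; % of control where 0% means no effect; nearly all actives have a fitted effect of over 65% in size; a mitochondrial uncoupler was the plate control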
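A stable cell line was treated with compounds at 5 concentrations for 24 hours, with CCCP as control. PINK1 levels and mitochondrial localization were measured by immunofluorescence with mitochondrial, cell and nuclear markers after fixation, read by laser-scanning cytometry.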
Six1-Eya2 blk – Six1/Eya2 interaction inhibition | Q15475+O00167 | AlphaScreen GST-Six1/His-Eya2 binding, biochemical; stronger effect = lower value; control for the full effect not named in the record | activity change, % (no concentration beside the values) | actives 0.56% (n = 360,000); in the data active = activity change below about -65%; inconclusive = about -30% to -65%; inactive = above about -30%; also: % is scaled to controls: 0 for no effect and ±100 for the full control effect; compound concentration not given in the record
Target sequence (O00167 whole entry, looked up): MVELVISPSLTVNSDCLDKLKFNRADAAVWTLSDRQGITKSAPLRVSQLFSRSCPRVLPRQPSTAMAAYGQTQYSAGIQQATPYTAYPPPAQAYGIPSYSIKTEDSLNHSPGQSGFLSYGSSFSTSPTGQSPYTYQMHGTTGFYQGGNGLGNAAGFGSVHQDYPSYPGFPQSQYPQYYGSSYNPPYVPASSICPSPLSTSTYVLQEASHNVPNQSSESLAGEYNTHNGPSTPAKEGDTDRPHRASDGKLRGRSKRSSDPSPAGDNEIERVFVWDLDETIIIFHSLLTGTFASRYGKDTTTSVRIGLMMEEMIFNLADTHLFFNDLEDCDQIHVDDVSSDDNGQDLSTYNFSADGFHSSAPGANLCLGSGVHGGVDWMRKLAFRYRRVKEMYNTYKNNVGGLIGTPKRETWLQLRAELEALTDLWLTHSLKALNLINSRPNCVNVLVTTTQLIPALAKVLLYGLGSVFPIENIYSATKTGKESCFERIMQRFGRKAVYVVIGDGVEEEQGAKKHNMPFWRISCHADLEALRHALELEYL
Target sequence (Q15475 whole entry, looked up): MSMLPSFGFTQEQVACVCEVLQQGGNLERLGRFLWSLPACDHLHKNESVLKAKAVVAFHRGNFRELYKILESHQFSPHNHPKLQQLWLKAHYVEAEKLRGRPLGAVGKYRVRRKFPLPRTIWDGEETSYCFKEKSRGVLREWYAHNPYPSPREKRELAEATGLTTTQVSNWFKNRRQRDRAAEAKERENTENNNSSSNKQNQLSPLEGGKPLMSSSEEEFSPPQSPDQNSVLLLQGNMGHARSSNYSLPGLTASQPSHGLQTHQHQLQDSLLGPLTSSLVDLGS
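AlphaScreen with GST-Six1 and His-Eya2 (5X mix: 250 nM and 500 nM), glutathione donor and nickel acceptor beads; buffer 50 mM Tris pH 8.0, 300 mM NaCl, 1 mM TCEP; 1 h at 37 C in the dark.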
An asterisk follows results filed as active; ? = inconclusive; . = no result given; [ ] = another dose, or the depositor's remark.

SMILES | D2 ag | TRPML1 blocker | TRPML1 agonist | CtBP-E1A blk | PINK1 expr mod | Six1-Eya2 blk
Cc1ccccc1-c1ncc(CN2CCN(C3CCCC3)C(CCO)C2)cn1 (stereo not drawn) | -2.1 | -0.6 | -0.8 | . | 1.0% | 7.4
O=C1c2ccccc2C(=O)N1Cc1nc(-c2ccccc2)no1 | -1.4 | -8.6 | 0.9 | 10.2 | 10.6%[38.3 µM] | 0.5
C/C(=N\Nc1ccc([N+](=O)[O-])cc1)c1ccc(-n2nncc2C(C)(C)C)cc1 | 2.9 | -0.8 | 1.6 | 3.7 | ? | -2.5
COc1ccc(NC(=O)CSc2nnc(C)n2N)cc1S(=O)(=O)N1CCCCC1 | -0.5 | 3.6 | -0.6 | 12.4 | -0.9% | -3.0
O=C(CSc1ncccn1)N(Cc1cccnc1)C(CCc1ccccc1)c1nc2ccccc2[nH]1 (stereo not drawn) | 0.3 | . | -0.4 | 0.6 | 0.2% | -0.2
Cc1sc2c(c1C)c(=O)n(-c1ccc(Cl)cc1)c(=O)n2Cc1cc(=O)n2cc(Br)ccc2n1 | . | 4.6 | -0.2 | . | 1.6% | .
O=C(NCCN1CCOCC1)c1cc2ccccc2[nH]1 | -2.2 | 1.2 | 0.0 | 4.2 | -1.1% | -5.1
CN(Cc1cn(-c2ccccc2)nc1-c1ccc2c(c1)OCO2)Cc1nccn1C | -5.4 | 50.8 | 5.8 | . | -1.6% | ?
COc1cc(/C=N/N(CCO)C2=NS(=O)(=O)c3ccccc32)cc(OC)c1OC | 3.6 | -16.9 | -0.5 | -90.4* | 4.9% | -65.5*
COc1ccc(-c2sc3ccccc3c2/C=C/c2ccc(OC)c(OC)c2)cc1 | -9.3 | 37.4 | 0.1 | 28.0 | 1.1% | 33.9
C(=N\NC(=Nc1ccccc1)c1ccccn1)/c1ccccn1 | 0.5 | -6.7 | -0.4 | -2.3 | -2.1% | -26.9
COC(=O)C(Cc1ccc(O)cc1)NC(=O)CCc1ccco1 (stereo not drawn) | 0.2 | 32.9 | 2.0 | -1.2 | -2.7% | 18.3
CC(C)(C)c1cc(C(=O)Nc2cccc3ccccc23)ccn1 | -0.4 | 3.9 | -0.8 | 8.7 | 3.2% | -2.0
COc1ccccc1NS(=O)(=O)c1cccc(NC(=O)c2sc3ccccc3c2Cl)c1 | -0.4 | 17.8 | -0.6 | 2.4 | 1.8% | -9.2
COc1cccc(C(=O)CSc2nnnn2C2CCCCC2)c1 | -1.8 | -12.8 | 2.2 | 4.9 | -3.8% | 3.0
Cc1nn(CC(=O)NCc2ccco2)c(=O)c2nn(-c3ccccc3)c(C)c12 | . | -15.1 | -0.5 | . | -1.6% | .
Cc1nc(C#N)c(NCc2ccc3c(c2)OCO3)o1 | -0.8 | -0.5 | -1.0 | 6.2 | 2.9% | -8.3
O=S(=O)(c1ccc(Cl)cc1Cl)n1ccnc1 | . | -8.3 | -0.2 | . | 0.3% | .
CNC(=S)N(Cc1cc2ccc(OC)cc2[nH]c1=O)CC1CCCO1 (stereo not drawn) | -3.1 | 9.8 | 0.9 | -1.4 | -1.1% | -3.5
CC12C=CC3(O1)C(C(=O)N(c1cccnc1)C3C(=O)NC1CCCCC1)C2C(=O)Nc1ccccc1 (stereo not drawn) | 2.7 | 15.0 | 2.1 | -1.7 | -2.7% | 2.8

Taken from above:
CC(C)(C)c1cc(C(=O)Nc2cccc3ccccc23)ccn1 @ TRPML1 blocker: 3.9
O=C(NCCN1CCOCC1)c1cc2ccccc2[nH]1 @ Six1-Eya2 blk: -5.1

The listing continues:
SMILES | D2 ag | TRPML1 blocker | TRPML1 agonist | CtBP-E1A blk | PINK1 expr mod | Six1-Eya2 blk
Cc1ccc(-n2ncc3c(=O)n(CC(=O)N(C)C)cnc32)cc1C | 3.9 | 0.3 | -0.2 | 7.1 | 5.8% | 5.9
CCOC(=O)C1(C)CCCN(C(=O)Cc2ccc3ccccc3c2)C1 (stereo not drawn) | -3.1 | 23.0 | -0.4 | 22.4 | 2.0% | 3.4
CCC(=O)NCCC(c1ccco1)c1ccccc1OC (stereo not drawn) | -1.1 | 9.7 | 1.2 | 0.0 | -0.9% | 17.1
Cc1nn(Cc2ccccc2Cl)c(C)c1NC(=O)c1cc(-c2ccc(F)cc2)on1 | 1.0 | 0.8 | 4.0 | 2.2 | ? | 0.8
O=C(NCCc1ccc(Cl)cc1)c1n[nH]c2ccccc12 | -0.7 | -4.2 | 2.1 | . | 3.1% | 19.0
Cc1ccccc1NC1=C/C(=N\S(=O)(=O)c2ccc(C(=O)O)cc2)c2ccccc2C1=O | 10.4 | -7.5 | 0.3 | ? | -3.0% | -22.9
CC(C)(C)OC(=O)N1CCCC(C(=O)Nc2cccc(C(=O)N3CCOCC3)c2)C1 (stereo not drawn) | 0.3 | 13.2 | 1.2 | 1.6 | 1.2% | 4.4
CCN(CC)Cc1c(O)ccc2c(=O)c(-c3ccccc3Cl)coc12 | 2.8 | 19.4 | 0.3 | -10.9 | 0.0% | 7.7
CN(C(=O)c1cccc(NC(=O)Cc2ccc(NC(=O)C3CCCN(C(=O)C4CC4)C3)cc2)c1)C1CCCCC1 (stereo not drawn) | 0.6 | 14.1 | 0.8 | 1.0 | 0.4% | 1.3
O=C(NCc1nnc(SCC(=O)N2CCOCC2)o1)c1ccccc1F | 0.0 | 33.0 | 4.8 | 4.6 | -0.6% | 0.2
COc1ccc(OCC(=O)N2CCN(c3nnc(-c4ccc(C)cc4)c4ccccc34)CC2)cc1 | -3.3 | -20.0 | 1.1 | -1.0 | 0.9% | -2.8
Cc1ccc2[nH]c(=O)c(CN(CCN3CCOCC3)C(=O)Nc3ccc(F)cc3)cc2c1 | -0.8 | 10.4 | -0.1 | -0.9 | 1.0% | 3.5
OCCC1CN(Cc2cccn2-c2cccnc2)CCN1C1CCCCC1 (stereo not drawn) | -3.0 | 19.2 | 0.0 | 0.7 | 0.3% | 0.2
COc1ccc(OC)c(NC(=O)COC(=O)/C=C/c2ccccc2Cl)c1 | 6.1 | 0.2 | 1.1 | -21.9 | 3.0% | -9.8
COC(=O)[C@@]1(Cc2ccccc2)[C@H]2C(=O)N(Cc3ccccc3)C(=O)[C@H]2[C@H]2CN=C(SCc3ccccc3)N21 | 0.0 | 68.3 | 1.6 | -11.4 | 0.2% | -13.7
COc1cc(OC)c(NC(=O)c2c(C)nn(-c3ccc(C)cc3)c2-n2cccc2)cc1Cl | . | 13.7 | 0.5 | . | 6.0% | .
COc1ccc(C2=Nn3c(nnc3-c3ccco3)SC2)cc1OC | -2.2 | 11.6 | 1.6 | -87.1* | 2.4% | -71.2*
CC(Oc1ccc(Cl)cc1Cl)c1nc(-c2ccc(NC(=O)c3ccccn3)cc2)no1 (stereo not drawn) | -3.3 | -2.4 | 0.3 | 8.9 | 28.5%[38.3 µM] | 4.4
COc1cc(S(=O)(=O)N2CCOCC2)c(OC)c(S(=O)(=O)N2CCOCC2)c1 | -0.8 | 25.5 | 0.6 | -4.4 | 0.7%[38.3 µM] | 2.3
Cc1ccc(S(=O)(=O)NCC(=O)N(CC(=O)NCc2ccco2)C2CCCC2)cc1 | -2.7 | 1.8 | -0.1 | -9.7 | 0.6% | -7.3
CCC(=O)NC1CC(=O)N(c2ccc3c(c2)OCCO3)C1 (stereo not drawn) | . | -14.6 | 0.1 | . | 0.2% | .
CC1(C)CC(N2CCN(c3ccccc3)CC2)=CC(=[N+]2CCCC2)C1 | 1.5 | -8.8 | -0.6 | 55.2 | -3.3%[38.3 µM] | 22.9
c1ccc(Cn2c(SCc3cn4cccnc4n3)nnc2-c2ccco2)cc1 | -2.0 | 11.2 | -1.3 | -8.9 | 0.0% | 6.5
Cc1cc(C)n2nc(S(=O)(=O)NC3CCCCC3)nc2n1 | -1.4 | 1.3 | 1.4 | 4.5 | -1.7% | 1.2
O=C(Cc1ccc(-n2cnnn2)cc1)NC12CC3CC(CC(C3)C1)C2 | 0.0 | -11.0 | -0.2 | 0.9 | 0.5% | 1.0
O=C1Nc2ccccc2N(O)N1c1ccc(Cl)cc1 | -5.4 | -17.6 | -0.2 | -8.0 | 1.6% | 9.1
O=S(=O)(c1ccc(OCC(O)CN2CCN(c3ccccc3O)CC2)cc1)N1CCOCC1 (stereo not drawn) | ? | 4.7 | 0.6 | 5.8 | 3.5%[38.3 µM] | -2.4
CSc1ccc(CCNC(=O)CCc2c(C)nc3c(c(C)nn3-c3ccc(C)c(C)c3)c2C)cc1 | . | -1.2 | -0.8 | . | 1.0% | .
CCOc1ccccc1Oc1c(C)oc2c(CN3CCN(C)CC3)c(O)ccc2c1=O | -0.9 | 1.2 | -0.8 | 11.2 | 1.4%[38.3 µM] | 0.9
O=C(COC(=O)c1cc(=O)[nH]c2ccccc12)Nc1nccs1 | -3.8 | -7.5 | -0.7 | . | 0.8% | 0.9
CC1(C)Cc2c(C#N)c(SCc3nc4ccccc4[nH]3)nc(N3CCOCC3)c2CO1 | 1.8 | -2.3 | -0.9 | 6.6 | 1.9% | 4.1
C/C(=N\NC(=O)CNC(=O)C(c1ccccc1)c1ccccc1)c1ccccc1 | 1.8 | -0.2 | -0.3 | -22.7 | 0.4% | 6.7
O=S(=O)(Nc1cccc(F)c1)c1cccc2nsnc12 | 1.4 | -4.9 | 3.2 | 10.8 | 0.1% | 14.7
CCc1nn(CC(=O)NCCCN(C)Cc2ccccc2)c(=O)c2cc3sc(C)cc3n12 | -2.0 | 2.7 | 1.1 | -4.9 | 0.1% | -8.3
COc1cc(OC)nc(Nc2nc(CN)cs2)n1 | -5.5 | . | -0.1 | ? | -1.0% | -25.4
CC1(C)OC(=O)C2=C(C[C@@H](CCOCc3ccccc3)O[C@@H]2c2ccc(F)cc2)O1 | . | . | -0.2 | 7.9 | 0.1% | 6.1
COc1ccc(N=c2cc(-c3ccc(OC)cc3)oc3ccccc23)cc1 | -4.9 | 8.4 | 2.6 | -1.3 | 4.6% | ?
CC(C)c1ccc(OCC(=O)NNC(=S)NC(=O)c2cccs2)c(Br)c1 | 3.5 | -0.6 | 0.0 | 0.3 | 0.8% | 7.1
Cc1cc(C2=NNC(=NCc3ccccc3)SC2)c(C)n1-c1c(C)n(C)n(-c2ccccc2)c1=O | -0.6 | 7.0 | 1.4 | 1.0 | 2.5% | -14.0
CCOc1ccccc1NC(=S)Nc1ccccc1F | -0.3 | 26.4 | -0.8 | 7.6 | 0.7% | -5.2
CC1CCCN(c2sc(S(C)(=O)=O)nc2S(=O)(=O)c2ccc(Cl)cc2)C1 (stereo not drawn) | -5.9 | 26.1 | 2.1 | -3.5 | -0.4% | 1.9
O=[N+]([O-])c1ccc2[nH]c(O)c(N=NC3CS(=O)(=O)CC3O)c2c1 (stereo not drawn) | -4.9 | -13.3 | 0.6 | -7.0 | -0.8% | 4.2
CCNC(=O)c1c(C)oc2ncn(C)c(=O)c12 | . | -0.1 | 2.1 | . | -1.4% | .
